DUX4 inh: DUX4-mediated transcription inhibition. 293T-iDUX4 ZSCAN4-Gaussia luciferase reporter, 24 h; active compounds read low. activity change, negative = inhibition, % (test concentration not listed). actives 0.8% (n = 37,000). AID 1224904;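 active = -10% or lower and over 25 points stronger than a control reporter; inconclusive = -10% or lower with a smaller gap; inactive = above -10%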;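 also: 0% = median of neutral control wells and -100% = median of positive control wells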
DUX4 inh difference: also measured in DUX4 inh; calls as there; Gaussia minus Italica difference, %; measured here: selective DUX4 reporter inhibition;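 worked out from the two reporters; negative = selective loss of the DUX4 reporter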
DUX4 inh control: further read-out of DUX4 inh, marked with its call; activity change, negative = inhibition, %; measured here: Italica tet-on control reporter;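 0 = neutral control and -100 = positive control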
An asterisk follows results filed as active; ? = inconclusive; nt = no result given; & = joins results of further samples. Not all compounds are listed, so the mix of outcomes need not match the whole.

molecule | DUX4 inh | DUX4 inh difference | DUX4 inh control
CO[C@@H]1CN(C)C(=O)c2ccc(NC(=O)NC(C)C)cc2OC[C@@H](C)N(Cc2ccc(-c3ccccn3)cc2)C[C@H]1C | ? | nt | nt
C[C@@H]1CN([C@H](C)CO)C(=O)c2cccc(NC(=O)Nc3ccc4c(c3)OCO4)c2O[C@H]1CN(C)S(C)(=O)=O | -6.6 | -6.0 | -0.5
C[C@H](CO)N1C[C@H](C)[C@H](CN(C)C(=O)Cc2ccccn2)Oc2cc(-c3ccc(C(=O)N(C)C)cc3)ccc2S1(=O)=O | -3.2 | -5.8 | 2.7
CC(C)C#Cc1ccc2c(c1)O[C@H](CN(C)C(=O)c1ccncc1)[C@H](C)CN([C@H](C)CO)S2(=O)=O | -3.7 | -3.6 | -0.2
Cn1cnc(CCNC(=O)C[C@@H]2CC[C@H]3[C@@H](COC[C@H](O)CN3C(=O)Nc3ccc(Cl)cc3)O2)c1 | 12.1 | 4.8 | 7.3
COc1ccccc1NC(=O)N[C@@H]1CC[C@H](CCNC(=O)c2ccc3c(c2)OCO3)O[C@H]1CO | 8.3 | 6.8 | 1.6
CCC(=O)N1CC[C@H]2[C@H](CO)Nc3ccc(C#Cc4cccnc4)cc3[C@H]21 | 6.8 | 6.3 | 0.5
CCCNC(=O)[C@H]1[C@H](CO)[C@H]2Cn3c(ccc(-c4ccc(F)cc4)c3=O)[C@@H]1N2CC | 5.3 | 5.3 | 0.0
COc1cccc(C#Cc2ccc([C@H]3[C@H](CO)N4C(=O)CN(S(=O)(=O)c5ccccc5C)C[C@@H]34)cc2)c1 | ? | nt | nt
C[C@@H]1CN([C@@H](C)CO)C(=O)Cc2cc(NC(=O)c3ccncc3)ccc2O[C@H]1CN(C)Cc1ccc2c(c1)OCO2 | 7.4 | 2.9 | 4.6
COCC(=O)N1CC2(C1)CN(S(C)(=O)=O)[C@H](CO)c1[nH]c3cc(OC)ccc3c12 | 19.5 | 3.7 | 15.8
Cc1ccccc1S(=O)(=O)N1[C@H](C#N)[C@@H](c2ccccc2)[C@H]1CO | -5.8 | 1.0 | -6.9
C[C@@H]1CN([C@@H](C)CO)C(=O)c2ccccc2-c2ccccc2CO[C@H]1CN(C)C(=O)[C@@H](Cc1ccccc1)N(C)C | 1.4 | -4.7 | 6.1
C[C@@H]1CN([C@@H](C)CO)C(=O)CCCn2nncc2CO[C@@H]1CN(C)Cc1ccc(-c2ccccc2)cc1 | ? | nt | nt
C[C@@H]1CCCCO[C@H](CN(C)C(=O)c2ccccc2)[C@H](C)CN([C@@H](C)CO)C(=O)c2cc(NS(=O)(=O)c3ccc(F)cc3)ccc2O1 | 7.6 | 0.8 | 6.8
COc1cccc(C#Cc2ccc([C@@H]3[C@H](CO)N4C(=O)CN(C(=O)Cc5cccnc5)C[C@@H]34)cc2)c1 | -1.0 | 2.0 | -3.0
O=C(Cc1cccnc1)N1[C@H](CNCC2CCC2)[C@H](c2ccccc2)[C@@H]1CO | -4.4 | -1.0 | -3.4
COc1cccc(C#Cc2ccc([C@H]3[C@@H](CO)N4C(=O)CN(C(=O)Cc5cccnc5)C[C@@H]34)cc2)c1 | -5.3 | 6.0 | -11.3
CCCN1C[C@H](C)[C@H](OC)CN(C)C(=O)c2ccc(NS(C)(=O)=O)cc2OC[C@@H]1C | -1.4 | -4.3 | 2.9
O=C(C[C@H]1CC[C@H]2[C@@H](COC[C@@H](O)CN2S(=O)(=O)c2ccccc2)O1)NCc1ccc2c(c1)OCO2 | 6.6 | 3.4 | 3.3
COc1ccccc1NC(=O)N1C[C@@H](O)COC[C@@H]2O[C@@H](CC(=O)NCCc3ccncc3)CC[C@H]21 | 1.5 | 0.9 | 0.6
O=C(c1ccccc1)N1C[C@@H]2[C@H](c3ccccc31)[C@@H](CO)N2S(=O)(=O)c1ccccc1 | -1.8 | -4.7 | 2.9
CCNC(=O)C[C@@H]1CC[C@@H]2[C@H](COc3ccc(NC(=O)Nc4ccccc4Cl)cc3C(=O)N2C)O1 | 1.3 | 0.0 | 1.3
CN(C)C(=O)[C@H]1[C@H](CO)[C@H]2Cn3c(ccc(C4=CCCCC4)c3=O)[C@H]2N1C(=O)c1ccccc1F | -0.8 | -3.6 | 2.7
COc1cccc(-c2ccc3c(c2)[C@@H]2[C@@H](CCN2C(=O)NC2CCCC2)[C@@H](CO)N3C)c1 | ? | nt | nt
O=C(Nc1ccc(Cl)cc1)N1C[C@@H]2[C@H](c3ccccc31)[C@H](CO)N2CC1CCCCC1 | -0.4 | -2.0 | 1.7
CCCNC(=O)N1CC2(C1)[C@H](c1ccccc1)[C@@H](CO)N2CC1CCOCC1 | 8.1 | 4.1 | 4.0
Cc1noc(C)c1S(=O)(=O)N(C)C[C@H]1Oc2c(cccc2N(C)C)C(=O)N([C@@H](C)CO)C[C@@H]1C | -1.7 | -1.1 | -0.6
CN(C)C(=O)[C@H]1[C@H](CO)[C@H]2Cn3c(ccc(C4=CCCCC4)c3=O)[C@H]2N1Cc1ccc2c(c1)OCO2 | 5.9 | 7.0 | -1.1
C[C@H](CO)N1C[C@H](C)[C@@H](CN(C)C(=O)Nc2ccc(F)cc2)Oc2ccc(NC(=O)c3ccncc3)cc2CC1=O | -0.7 | -6.4 | 5.7
CO[C@H]1CN(C)C(=O)c2ccc(NC(=O)C3CCOCC3)cc2OC[C@H](C)N(C(=O)c2ccccc2)C[C@@H]1C | 4.8 | -2.0 | 6.8
O=C(C1CCC1)N1CCCCN2[C@H](C1)[C@H](c1ccc(C#CC3(O)CCCC3)cc1)[C@@H]2CO | 9.3 | -5.5 | 14.8
C[C@@H]1CN([C@@H](C)CO)C(=O)c2cc(N(C)C)ccc2O[C@@H](C)CCCCO[C@H]1CN(C)S(C)(=O)=O | 2.4 | -0.3 | 2.6
O=C(C[C@H]1CC[C@H](NC(=O)C2CCOCC2)[C@H](CO)O1)NCc1ccccc1Cl | 3.5 | 3.2 | 0.3
C/C=C/c1ccc2c(c1)O[C@@H](CN(C)C(=O)Cc1cccnc1)[C@@H](C)CN([C@H](C)CO)S2(=O)=O | -0.5 | 0.1 | -0.6
COCC(=O)NC[C@@H]1[C@@H](c2ccc(-c3ccccc3)cc2)[C@@H](CO)N1C(C)=O | -2.6 | -0.8 | -1.7
CCS(=O)(=O)Nc1ccc2c(c1)C(=O)N(C)C[C@H](OC)[C@@H](C)CN(C(=O)c1ccc3c(c1)OCO3)[C@@H](C)CO2 | 6.8 | 0.1 | 6.7
O=C(C[C@@H]1C[C@@H]2c3cc(NC(=O)NC4CCCCC4)ccc3O[C@@H]2[C@H](CO)O1)NCC(F)(F)F | 1.8 | -4.1 | 5.9
CN1C(=O)c2cc(NC(=O)Nc3ccccc3F)ccc2OC[C@@H]2O[C@H](CC(=O)NCCc3ccncc3)CC[C@@H]21 | 1.6 | 0.8 | 0.7
COC(=O)C[C@H]1CC[C@@H]2[C@@H](COc3ccc(NC(=O)c4ccc(F)c(F)c4)cc3C(=O)N2C)O1 | -2.6 | -5.1 | 2.5

3 compounds drawn at random from the list so far:
molecule | DUX4 inh | DUX4 inh difference | DUX4 inh control
COc1cccc(-c2ccc3c(c2)[C@@H]2[C@@H](CCN2C(=O)NC2CCCC2)[C@@H](CO)N3C)c1 | ? | nt | nt
COc1ccccc1NC(=O)N1C[C@@H](O)COC[C@@H]2O[C@@H](CC(=O)NCCc3ccncc3)CC[C@H]21 | 1.5 | 0.9 | 0.6
CCNC(=O)C[C@@H]1CC[C@@H]2[C@H](COc3ccc(NC(=O)Nc4ccccc4Cl)cc3C(=O)N2C)O1 | 1.3 | 0.0 | 1.3

Other compounds
molecule | DUX4 inh | DUX4 inh difference | DUX4 inh control
CS(=O)(=O)N1C[C@@H](O)COC[C@H]2O[C@H](CC(=O)NCCc3ccncc3)CC[C@@H]21 | 5.8 | 1.4 | 4.4
CCC(=O)Nc1ccc2c(c1)OC[C@H](C)N(Cc1ccccc1F)C[C@@H](C)[C@@H](OC)CN(C)C2=O | ? | nt | nt
O=C(C[C@@H]1CC[C@@H]2[C@H](COC[C@@H](O)CN2C(=O)Cc2ccccc2)O1)NC1CCCC1 | 4.8 | 5.3 | -0.5
C[C@@H]1CN([C@@H](C)CO)C(=O)CCCn2nncc2CO[C@@H]1CN(C)Cc1cccnc1 | -1.6 | -0.5 | -1.1
CO[C@@H]1CN(C)C(=O)c2ccc(NC(=O)c3ccccc3)cc2OC[C@H](C)N(C(=O)C2CC2)C[C@@H]1C | -0.6 | 4.0 | -4.6
CS(=O)(=O)Nc1ccc2c(c1)[C@H]1C[C@H](CC(=O)NC3CCCC3)O[C@H](CO)[C@H]1O2 | 3.1 | -1.2 | 4.3
N#Cc1ccc(-c2ccc([C@H]3[C@H](CO)N4C(=O)CN(C(=O)C5CCCCC5)C[C@@H]34)cc2)cc1 | 1.0 | -1.4 | 2.4
Cc1cccc(-c2ccc([C@@H]3[C@H](CO)N4CCCCN(C(=O)c5ccncc5)C[C@@H]34)cc2)c1 | 3.2 | 4.5 | -1.3
CN1C(=O)c2cc(NC(=O)Nc3cccc(Cl)c3)ccc2OC[C@H]2O[C@H](CC(=O)NCCc3ccncc3)CC[C@@H]21 | -4.9 | -6.2 | 1.2
CO[C@@H]1CN(C)C(=O)c2ccc(NC(C)=O)cc2OC[C@@H](C)N(C(=O)c2ccccc2)C[C@@H]1C | 1.1 | 2.1 | -1.0
C/C=C/c1ccc([C@H]2[C@@H](CO)N(C(=O)c3cnccn3)C23CN(C(=O)C2CCC2)C3)cc1 | -8.2 | -7.7 | -0.4
C[C@H](CO)N1C[C@H](C)[C@@H](CN(C)C(=O)c2ccncc2)OCc2cnnn2CCCC1=O | -2.0 | -1.0 | -0.9
CCCNC(=O)N1[C@H](C#N)[C@H](c2ccccc2C2=CCCC2)[C@@H]1CO | 0.4 | -2.5 | 2.9
COCC#Cc1ccc([C@@H]2[C@@H](C#N)N(C(=O)NC3CCCC3)[C@@H]2CO)cc1 | 0.3 | 1.4 | -1.1
CCS(=O)(=O)Nc1ccc2c(c1)C(=O)N(C)[C@H]1CC[C@@H](CC(=O)NCCOC)O[C@H]1CO2 | 0.2 | -2.8 | 3.0
CO[C@H](C(=O)N(C)C[C@H]1OCc2ccccc2-c2c(n(C)c3ccccc23)C(=O)N([C@@H](C)CO)C[C@@H]1C)c1ccccc1 | -2.8 | -2.3 | -0.5
C[C@H](CO)N1C[C@H](C)[C@H](CN(C)CC2CCOCC2)Oc2ncc(C3=CCCCC3)cc2C1=O | 0.2 | -2.4 | 2.6
C[C@@H]1CN([C@@H](C)CO)C(=O)c2cc(NS(C)(=O)=O)ccc2O[C@@H](C)CCCCO[C@@H]1CN(C)CC1CCCCC1 | -0.4 | 1.8 | -2.2
COc1ccccc1-c1ccc2c(c1)O[C@H](CN(C)C(=O)c1ccncc1)[C@H](C)CN([C@@H](C)CO)S2(=O)=O | 3.4 | 4.0 | -0.6
C[C@@H](O)C#Cc1ccc([C@@H]2[C@H](CO)N3CCCCN(C(=O)c4cccc(F)c4)C[C@@H]23)cc1 | 10.2 | 16.5 | -6.3
CCCC(=O)N1CCC2(CC1)CN[C@H](CO)c1[nH]c3cc(OC)ccc3c12 | 6.5 | 0.8 | 5.8
COCC(=O)N1[C@H](C(=O)N2CCOCC2)[C@@H](CO)[C@@H]2Cn3c(ccc(C4=CCCCC4)c3=O)[C@@H]21 | 1.8 | 2.5 | -0.7
CCN(C[C@@H]1N[C@H](CO)[C@H]1c1ccccc1)C(=O)c1ccncc1 | -2.5 | -1.4 | -1.1
COc1ccc2c3c([nH]c2c1)[C@H](CO)N(S(C)(=O)=O)CC31CCN(Cc2nccs2)CC1 | 6.4 | 14.7 | -8.2
CC(C)C#Cc1ccc([C@H]2[C@@H](CO)N3C(=O)CN(C(=O)c4ccccn4)C[C@H]23)cc1 | 18.5 | 6.1 | 12.4
COCC(=O)N1C[C@H](C)[C@@H](OC)CN(C)C(=O)c2cc(NC(=O)Nc3ccccc3)ccc2OC[C@@H]1C | 0.1 | 7.5 | -7.4
O=C(NC1CCCC1)[C@H]1[C@H](CO)[C@H]2Cn3c(cccc3=O)[C@@H]1N2C(=O)CC1CC1 | -5.1 | -3.7 | -1.4
O=C(C[C@@H]1C=C[C@@H](NC(=O)C2CCC2)[C@@H](CO)O1)NCCCN1CCOCC1 | 2.5 | 4.6 | -2.1
COc1cccc(-c2ccc(C3[C@H]4CNC[C@@H]3N4C(=O)Nc3ccccc3OC)cc2)c1 (some centres not stated) | 9.6&3.7 | 18.4&-0.5 | -8.8&4.3
CO[C@@H](C(=O)N(C)C[C@@H]1OCc2ccccc2-c2ccccc2C(=O)N([C@@H](C)CO)C[C@H]1C)c1ccccc1 | -5.6 | -6.8 | 1.2
CC=Cc1ccc2n(c1=O)C[C@@H]1[C@@H](CO)[C@H](C(=O)NCCc3cn(C)cn3)N(C(=O)C3CC3)[C@H]21 (mixture of isomers) | 5.7 | 4.7 | 1.0
C[C@@H]1CN([C@@H](C)CO)C(=O)c2cc(C#CC3(O)CCCC3)cnc2O[C@H]1CN(C)C(=O)Nc1ccc2c(c1)OCO2 | 2.3 | 6.3 | -4.0
CCNC(=O)[C@@H]1[C@@H](CO)[C@@H]2Cn3c(ccc(-c4cncnc4)c3=O)[C@@H]2N1Cc1ccc2c(c1)OCO2 | -4.3 | -6.7 | 2.5
COc1ccccc1CN1C[C@@H]2N[C@H](C1)[C@@H]2c1ccc(-c2cccnc2)cc1 | ? | nt | nt
O=C(CCN1CCCCC1)N[C@H]1CC[C@@H](CCn2cc(-c3cccc(F)c3)nn2)O[C@@H]1CO | -3.2 | -5.3 | 2.0
O=C(Nc1ccc(F)cc1)N1C[C@@H]2[C@H](c3ccccc31)[C@@H](CO)N2C(=O)Cc1ccccc1 | -3.5 | -5.3 | 1.8
COc1cccc(C(=O)Nc2ccc3c(c2)OC[C@H](C)N(C)C[C@H](C)[C@@H](OC)CN(C)C3=O)c1 | 1.6 | 1.3 | 0.3
COc1ccc(NC(=O)N2CC(=O)N3[C@H](CO)[C@@H](c4ccc(Br)cc4)[C@H]3C2)cc1 | 4.7 | -1.9 | 6.6

High-throughput results (PubChem BioAssay)
